Bioassay records (PubChem)
Anthrax LT inh = inhibitors of anthrax lethal toxin internalization. Cells, anthrax lethal toxin internalization, FRET ratio (460/530). Potency, µM (highest dose often 40 µM), without a hit: top-dose activity change, negative = inhibition, most hits filed as inhibitors. actives 0.67% (n = 70,000). AID 912; active = well fitted falling ratio curve with the 530 nm signal flat; inconclusive = other ratio curves, or a change in one channel alone; inactive = flat curves in the ratio and both channels; the % refers to the ratio; also: % is scaled to controls: 0 for no effect and ±100 for the full control effect; nearly all actives have a fitted effect of over 50% in size; tested in ME-180 cells; beta-lactamase reporter
SmPrx2 inh = Schistosoma mansoni Prx2 inhibition; S. mansoni Prx2 activity coupled to TGR/GSH (TGR is thioredoxin glutathione reductase), NADPH fluorescence loss, qHTS; some inactives read as strong as hits; Potency, µM; actives 0.07% (n = 65,000); active means full or partial inhibition curve with a strong effect at the top dose; inconclusive means weaker partial or single-point curve; inactive means no accepted curve; also: series up to 57 µM; many of its hits are not listed in these tables
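Prx2 activity was followed as the loss of NADPH fluorescence (ex 365/em 450 nm), read every 30 sec for 8 min after H2O2 start. The enzyme mix (50 nM Prx2, 25 nM TGR, GSH, NADPH; pH 7.4 phosphate buffer) was incubated with compound for 15 min at room temperature first.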
An asterisk follows results filed as active; u = inconclusive; x = not tested or not shown; [ ] = another dose, or the depositor's remark. Potency is read from the fitted curve at half-maximal effect.

Molecule	Anthrax LT inh	SmPrx2 inh
C#CCOc1ccc(Cl)cc1/C=N/O	u	>57
O=C(NCCN1C(=O)C2C3C=CC(C3)C2C1=O)Nc1cccnc1 (configuration not stated)	u	>57
COc1ccc(-n2c(Cc3cccn3C)nnc2SCC(=O)Nc2cccc(Cl)c2)cc1	u	>57
Cc1ccc(-n2c(Cc3cccn3C)nnc2SCC(=O)Nc2cc(C)on2)cc1	8%	x
CS(=O)(=O)c1ccc(C(=O)NC2CCOC2=O)cc1 (configuration not stated)	11%	>57
C/C(N)=C(/C#N)C(=O)CSc1nnc(Nc2cccc(C)c2)s1	-4%	u
COc1ccc(C(C)=O)cc1COC(=O)c1c(C)noc1C	-7%	>57
COc1ccccc1N(CC(=O)Nc1cc(C)on1)S(=O)(=O)c1cccs1	-6%	>57
O=C(c1n[nH]c(=O)c2ccccc12)N1CCOCC1	4%	>57
Cc1c2cc[n+](CCN3CCCCC3)cc2c(C)c2c1[nH]c1ccc(O)cc12	u	>57
COC(=O)C/C=C\[C@@H](C)[C@@H](/C=N\OC[C@@H]1O[C@H](c2ccccc2)C=C[C@@H]1Oc1ccc(OC)cc1)OC	5%[8 µM]	x
Cc1ccccc1-n1nnc2c(=O)oc3ccccc3c21	-14%	>57
COc1ccccc1CN1CCCC2(CCNCC2)C1	u	>57
O=C(c1cc(-c2ccco2)nn1-c1cccc(Cl)c1)N1CCCCC1	-28%	x
CNC(=O)c1ccc(Oc2ccc(C(=O)NC)cc2)cc1	10%	>57
Cc1ccc(S(=O)(=O)N(CC(=O)NCc2ccco2)Cc2ccc(F)cc2)cc1	-28%	x
c1ccc(-c2n[nH]c(-c3ccccn3)n2)nc1	3%	>57
COc1ccccc1OCCNC(=O)c1cccs1	13%	>57
CCOC(=O)N1CCN(S(=O)(=O)c2ccc(C(=O)Nc3nc4c(s3)CC(C)CC4)cc2)CC1 (configuration not stated)	0%	>57
O=C(c1ccco1)N1CCN(C(=O)C2CCN(S(=O)(=O)c3cccc4nsnc34)CC2)CC1	14%	>57
O=C(Nc1cnc2ccccc2c1)c1ccncc1	4%	>57
COc1ccc(CCNC(=O)CSc2nnc(-c3ccccc3)o2)cc1OC	4%	>57
CC1CCN(C(c2cc3cc4c(cc3[nH]c2=O)OCO4)c2nnnn2CC2CCCO2)CC1 (configuration not stated)	4%	>57
CC1CCN(c2ccc(NC(=O)c3cccnc3)cc2)CC1	-6%	>57
CN1CCN(c2ncnc3ccc(-c4ccc5c(c4)OCO5)cc23)CC1	u	x
c1cncc(-c2cc(-c3cc(-c4cccnc4)n[nH]3)[nH]n2)c1	-8%[8 µM]	>57
CCOc1ccc(NC(=O)CSc2nc3ccccc3c(=O)n2CCNC(C)=O)cc1	u	>57
O=C(Nc1ccccc1C(=O)N1CCOCC1)C1CCCO1 (configuration not stated)	-6%	>57
COc1ccc(-c2nn(CC(=O)N(C)C)c(=O)c3ccccc23)cc1	5%	x
CCOC(=O)c1ccc(OCc2nc(-c3cccs3)no2)cc1	-36%	>57
CCCc1cc(C(=O)N2CCN(S(=O)(=O)c3ccc(OC)c(OC)c3)CC2)cs1	u	x
Cn1c(=O)[nH]c(=O)c2c1nc(N1CCCCC1)n2CCOc1ccccc1	-27%	>57
Cc1[nH]c2ccccc2c1C(c1ccccn1)N1CCC(C(N)=O)CC1 (configuration not stated)	-7%	u
Cc1ccc2occ(C(c3nnnn3Cc3ccccc3)N3CCOCC3)c(=O)c2c1 (configuration not stated)	-6%	>57
CCCCOc1nc2ccccc2nc1C(C#N)S(=O)(=O)c1ccccc1 (configuration not stated)	6%	>57
N#Cc1c2c(c(NCc3ccco3)n3c1nc1ccccc13)CCC2	u	x
Cc1ccc(C(=O)COC(=O)CCc2nc3ccccc3[nH]c2=O)cc1C	12%	>57
O=C(O)c1cccc(Cn2cc(Cl)cn2)c1	-2%	>57
Cc1cc2nc(C(F)(F)F)[nH]c(=O)n2n1	-14%	>57
COC(=O)c1oc2ccc(Cl)cc2c1NC(C)=O	u	>57
COc1ccc(-c2nnc(SCC(=O)c3cccs3)o2)c(OC)c1	u	>57
CCOc1ccccc1NC(=O)Cn1nnc(C(=O)Nc2ccccc2Cl)c1N	1%	>57
COc1ccc(-c2nc(C#N)c(NC(C)C)o2)cc1	24%	>57
CCCCCCn1c(SCC(=O)Nc2cc(C)on2)nc2ccccc2c1=O	7%	>57
O=C(c1nc(-c2ccccc2)n(-c2ccccc2)n1)N1CCN(S(=O)(=O)c2ccccc2)CC1	-1%	>57
CCOC(=O)C(C)n1cnc2c(nnn2Cc2ccc(C)cc2)c1=O (configuration not stated)	-5%	>57
Cc1ccc(-c2nnc(-c3ccc4ccccc4c3)o2)cc1	-6%[8 µM]	>57
O=C(O)c1ccc(NS(=O)(=O)c2cc(Cl)ccc2Cl)cc1	-9%	>57
Cc1nn(C)c(C)c1S(=O)(=O)NC1CCCC1	9%	>57
CCCn1nnc(NC(=O)C(C)Oc2ccc(Cl)cc2Cl)n1 (configuration not stated)	-11%	>57
Cc1sc2ncn(CC(=O)OCC(=O)NC(C)(C)C)c(=O)c2c1C	-11%	>57
COCCOC(=O)C1=C(N)OC(C)=C(C(=O)OC)C12C(=O)Nc1ccccc12 (configuration not stated)	-4%	>57
Cc1ccc(-c2nc(NCCN3CCOCC3)c3ccccc3n2)cc1	-18%	>57
CCOC(=O)N1CCN(C(=O)CSc2nc3c([nH]c4ccccc43)c(=O)n2C)CC1	u	>57
CC(=O)CC(=O)Nc1ccccc1	0%	x
CCOC(=O)N1CCN(C(=O)CCSc2ccccc2)CC1	-10%	x

Going on with the list:
Molecule	Anthrax LT inh	SmPrx2 inh
Cc1nn(C(=O)N2CCCCC2)c(C)c1CN1C(=O)c2ccccc2C1=O	u	>57
O=C(Cn1nc(-c2ccc(Cl)cc2)ccc1=O)N1CCN(c2ccccc2)CC1	0%	>57
CSc1ccc(C2NC(=O)c3c(sc4c3CCN(C)C4)N2)cc1 (configuration not stated)	u	>57
Cc1cc(=O)[nH]c(SCCOc2ccc3c(c2)CCC3)n1	0%	>57
COC(=O)c1cc(OC)c(OC)cc1NC(=O)CSc1nnnn1Cc1ccccc1	-13%	>57
CCc1cc(=O)oc2cc(C)cc(OCc3nn[nH]n3)c12	-8%	>57
CN1C(=O)C[C@H](c2ccccc2)C1=O	0%[3.58 µM]	>57
Cc1cc(=O)n2nc(N3CCCC(C(=O)NCCCN4CCc5ccccc5C4)C3)sc2n1 (configuration not stated)	3%	>57
CCCCOC(=O)c1ccc(NC(=O)c2ccoc2C)cc1	-10%	>57
O=C(Nc1ccc(Oc2ncccn2)cc1)c1ccco1	10%	>57
COc1ccccc1NC(=O)N1c2ccc(F)cc2CCC1C (configuration not stated)	u	x
O=C1C(Cl)=C(N2CCCCC2)C(=O)N1c1ccccc1Cl	u	x
CCc1ccc2[nH]c(=O)c(CN(CCCN3CCOCC3)C(=O)Nc3cccc(Cl)c3)cc2c1	-13%	>57
O=C(Nc1ccc2nc(-c3ccccc3)oc2c1)c1ccco1	-19%	>57
Cc1ccc2cc(CN(C)C(=O)C3CCCO3)c(=O)[nH]c2c1 (configuration not stated)	4%	>57
CC(C)=CCC/C(C)=C/CO/N=C1/C[C@@H](O)[C@@H](O)[C@@H]2[C@@H]3C(=O)N([C@@H](C)c4ccccc4)C(=O)[C@H]3CC[C@H]12	-6%[8 µM]	x

A few values from the entries so far.
Anthrax LT inh with CC(C)=CCC/C(C)=C/CO/N=C1/C[C@@H](O)[C@@H](O)[C@@H]2[C@@H]3C(=O)N([C@@H](C)c4ccccc4)C(=O)[C@H]3CC[C@H]12 = -6%[8 µM]
SmPrx2 inh with O=C(Nc1ccc2nc(-c3ccccc3)oc2c1)c1ccco1 = >57
Anthrax LT inh with Cc1ccc2cc(CN(C)C(=O)C3CCCO3)c(=O)[nH]c2c1 (configuration not stated) = 4%

Returning to the listing; the 2 compounds before the break are reprinted first.
Molecule	Anthrax LT inh	SmPrx2 inh
Cc1ccc2cc(CN(C)C(=O)C3CCCO3)c(=O)[nH]c2c1 (configuration not stated)	4%	>57
CC(C)=CCC/C(C)=C/CO/N=C1/C[C@@H](O)[C@@H](O)[C@@H]2[C@@H]3C(=O)N([C@@H](C)c4ccccc4)C(=O)[C@H]3CC[C@H]12	-6%[8 µM]	x
O=C(c1ccc(CNS(=O)(=O)c2ccccc2)cc1)N1CCN(c2ccccn2)CC1	-2%	>57
Cc1ccc(S(=O)(=O)N2CCN(C3CCN(Cc4ccccc4)CC3)CC2)cc1	u	>57
Cc1ccc(Cl)cc1N1CCN(C(=O)c2ccc(NS(=O)(=O)c3c(C)noc3C)cc2)CC1	u	>57
COc1cc(C2C(C(=O)c3ccc(C)o3)=C(O)C(=O)N2c2cc(C)on2)cc(Br)c1O (configuration not stated)	-15%	>57
Cc1scc(C(=O)Nn2cnnc2)c1-c1ccccc1	x	>57
O=C(CCCSc1nc2ccccc2s1)NCc1ccco1	-14%	>57
Cc1ccc(C(=O)C(C)OC(=O)C2=COCCO2)cc1C (configuration not stated)	4%	>57
O=C(CCn1c(=O)[nH]c2ccsc2c1=O)N1CCN(Cc2ccc3c(c2)OCO3)CC1	-2%	>57

Sorted by molar mass (highest first): part of the list above
Molecule	Anthrax LT inh	SmPrx2 inh
O=C(CCn1c(=O)[nH]c2ccsc2c1=O)N1CCN(Cc2ccc3c(c2)OCO3)CC1	-2%	>57
O=C(c1ccc(CNS(=O)(=O)c2ccccc2)cc1)N1CCN(c2ccccn2)CC1	-2%	>57
Cc1ccc(S(=O)(=O)N2CCN(C3CCN(Cc4ccccc4)CC3)CC2)cc1	u	>57

Next part:
Molecule	Anthrax LT inh	SmPrx2 inh
COc1ccc(C(C(=O)NC(C)(C)C)N(Cc2ccco2)C(=O)CCC(=O)Nc2cc(C)on2)cc1 (configuration not stated)	0%	>57
O=C(Nc1ccc2[nH]c3c(c2c1)CCCC3)c1ccco1	0%	>57
Cn1cc(C(=O)c2ccccc2)c2ccccc21	-23%	>57
Cc1sc2ncnc(SCC(=O)N3CCCC3)c2c1C	9%	x
Cn1nc(C(=O)NC2CCCCC2)c2ccccc2c1=O	3%	>57
CCOc1ccc(N2C(=O)CC(/C=C3/N(C)c4ccccc4C3(C)C)C2=O)cc1 (configuration not stated)	x	>57
CCOc1ccccc1-n1c(SCC(=O)N(CC)CC)nnc1-c1ccccn1	-10%	>57
CCc1ccc(C2CC(c3ccccc3Cl)Nc3nc(N)nn32)cc1 (configuration not stated)	-2%	>57
Cc1ccc(Oc2ccc(NC(=O)c3ccco3)cc2)cc1	-18%	x
Cc1ccc(SCc2cc(=O)[nH]c(N3CCN(Cc4ccccc4)CC3)n2)cc1	-1%	>57
O=S(=O)(NCc1cn2ccsc2n1)c1ccc(Oc2ccccc2)cc1	5%	>57
Cc1nc(CN2CCN(C(=O)c3ccc(Br)cc3)CC2)cs1	6%	>57
OCCSc1nc(-c2cccnc2)nc2ccccc12	u	>57
CC(=O)N1C2(C=CC1(C)C(=O)NCc1ccccn1)CCCCC2 (configuration not stated)	u	x
COc1ccc(CCN(C)CCCOc2ccc(S(=O)(=O)c3[nH]c4ccccc4c3C(C)C)cc2)cc1OC	u	>57
Cc1ccc2c(c1)-c1c(cnn1CC(=O)O)CO2	8%	>57
Cc1c(C(=O)Nc2c(C)n(C)n(-c3ccccc3)c2=O)oc2ccccc12	-5%	>57
O=C(COc1ccc(Cl)cc1)NC1CCSC1=O (configuration not stated)	-18%	>57
COCCNC(=O)CS(=O)Cc1nc(-c2ccc(OC)cc2)oc1C (configuration not stated)	-6%	>57
O=C1CC(C(=O)Nc2ccccc2)N=C(N2CCOCC2)N1 (configuration not stated)	1%	>57
Cc1ccc2c(c1)c1c(n2CC(O)CN2C(=O)CNC2=O)C(=O)CCC1 (configuration not stated)	-22%	>57
CC(C)C[C@H](N)c1nnc(S(=O)(=O)Cc2ccc(F)cc2)o1	u	>57
Cc1cc(N2CCN(Cc3ccc4c(c3)OCO4)CC2)n2ncnc2n1	-2%	>57
CCOCCCNC(=O)c1c[nH]c2cc(C)ccc2c1=O	-10%	>57
COC(=O)Cn1ncc2c(C)n(Cc3ccccc3)c(C)c2c1=O	1%	>57
COc1ccc(-n2ncc3c(NCCCN4CCOCC4)ncnc32)cc1	3%	>57
CC(C)OCCCNC(=O)c1cc2c(s1)CS(=O)(=O)C2	-14%	>57
O=C(O)c1ccc([N+]2=Cn3c(nc4ccccc43)C2)cc1	-15%[8 µM]	>57
COc1cc(OC)cc(-c2nnc(SCC(=O)N3CCCC3)o2)c1	28%	>57
NC(=O)c1ccsc1NC(=O)COC(=O)C1CCCN1C(=O)c1cccs1 (configuration not stated)	u	>57
CC(Oc1ccc(Cl)cc1Cl)C(=O)NC1CCSC1=O (configuration not stated)	-16%	>57
CCOC(=O)C1C(=O)N(C)C2(C)CC1c1cc(OC)ccc1O2 (configuration not stated)	-2%	>57
CC1(C)C2CCC1(C)C(NC1=NCCC1)C2 (configuration not stated)	0%	>57
c1ccc(Cn2c(CNc3nc4ccccc4n3CCN3CCOCC3)nc3ccccc32)cc1	3%	>57
O=C(NCC1CCCO1)c1ccc(N2CCCCC2)nc1 (configuration not stated)	u	>57

This is a subset (hit frequency here may not be typical).
